Source: PubChem BioAssay (Broad Institute)
Shh pathway inh: Hedgehog pathway signaling inhibitors, primary screen, luminescence, Shh-LIGHT2 cells, Gli-luciferase; Shh-LIGHT2 Gli-luciferase reporter, 30 h; inhibition, % (concentration not given with the values); hit rate 2.1% among 22,000; AID 2313, 2010;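 active = replicate mean of 65% or more; inconclusive = mean lower but half the replicates past it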;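 note: pathway switched on by Shh-conditioned medium diluted 1 in 25 in low serum; 100 nL library stock added to about 40 µL; 0% = median of neutral wells and 100% = positive control level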
YB-1 expr inh: inhibitors of YB-1 gene expression, primary screen, cell-based, fluorescence | U2OS, qRT-PCR YB-1 vs CDIP delta delta Cp, 16 h; hits give high values; zero = DMSO, each unit about twofold | delta delta Cp (YB-1 minus CDIP) (concentration not given with the values) | hit rate 0.37% among 30,000;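 active = delta delta Cp rounded down to an integer at or above 3, about 3 SD of DMSO wells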;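 note: higher means less YB-1 transcript or more CDIP transcript relative to DMSO; stock transfer was 100 nL into about 100 µL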
PD-1 reverse act: activators reversing PD-1 mediated T-cell inhibition, primary screen, luminescence, primary human CD4 T cells, PD-L1 beads; CellTiter-Glo 96 h; activation, % (concentration not given with the values); 29,000 tested, under 10 active; AID 2316, 2010;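 active = replicate mean of 50% or more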;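 note: 0% = median vehicle wells and 100% = positive control; 100 nL library stock added to about 50 µL; numbers are from one replicate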
MITF inhib: inhibitors of MITF, primary screen, MITF inhibitor project, cell-based, luminescence | inhibition, % (no concentration beside the values) | TRPM1 promoter luciferase, 24 h | hit rate 0.28% among 37,000 | AID 2240, 2010;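 active = most replicates at 85% or more, or half of them and the mean; inconclusive = half reach 85% but not the mean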;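 note: human melanocyte line stably carrying TRPM1 promoter luciferase reporter; 0% = vehicle wells and 100% = a positive control; the first replicate is given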
* marks the source's active call; other numbers are inactive results; ? = inconclusive; . = not tested or not shown.

structure	Shh pathway inh	YB-1 expr inh	PD-1 reverse act	MITF inhib
C[C@@H]1CCCCO[C@H](CN(C)Cc2ccc(Cl)c(Cl)c2)[C@@H](C)CN([C@H](C)CO)C(=O)c2cc(NS(=O)(=O)c3ccc(F)cc3)ccc2O1	-5	-0.0042	-1.5	16
O=C1NCCN1c1ncc([N+](=O)[O-])s1	-34	0.038	.	5
C[C@@H]1CN([C@H](C)CO)C(=O)c2cc(NC(=O)Cc3ccccc3)ccc2O[C@H]1CN(C)Cc1ccccc1	.	0.15	-0.1	6
CC1(C)O[C@@H]2CC3C4CCC5=CC(=O)C=C[C@]5(C)[C@@]4(F)[C@@H](O)C[C@]3(C)[C@]2(C(=O)CO)O1 (some centres undefined)	31	0.34	.	-15
CC(C)(C)c1ccc(-c2nnc(SCC(=O)Nc3ccccc3[N+](=O)[O-])o2)cc1	.	.	-0.3	27
COc1ccc(-c2coc3cc(O)ccc3c2=O)cc1	34	0.0067	.	11
C[C@@H]1CCCCO[C@H](CN(C)S(=O)(=O)c2ccc(Cl)cc2)[C@@H](C)CN([C@H](C)CO)C(=O)c2cc(N(C)C)ccc2O1	-35	-0.093	-0.1	4
C[C@H](CO)N1C[C@H](C)[C@@H](CN(C)S(=O)(=O)c2ccc(Cl)cc2)Oc2ccc(NS(=O)(=O)c3cccs3)cc2C1=O	.	0.3	1.4	-14
C[C@@H]1CN([C@H](C)CO)C(=O)c2cc(NC(=O)Nc3ccc(C(F)(F)F)cc3)ccc2O[C@H]1CN(C)Cc1ccccc1	10	1.5	-5.2	-13
C[C@H](CO)N1C[C@H](C)[C@@H](CN(C)S(=O)(=O)c2ccc(F)cc2)Oc2ccc(NS(C)(=O)=O)cc2C1=O	.	-0.18	.	-4
COC(=O)c1c(NC(=O)c2ccc(C)c(S(=O)(=O)Nc3ccccc3C)c2)sc2c1CCCC2	.	.	-1.5	1
C[C@H](CO)N1C[C@H](C)[C@H](CN(C)C(=O)Nc2ccc3c(c2)OCO3)Oc2ccc(NS(=O)(=O)c3ccc(Cl)cc3)cc2CC1=O	4	0.29	.	9
COc1ccc2c(c1)N(C(=O)CSc1nnc(C)n1-c1ccc(F)cc1)C(C)(C)C=C2C	.	.	-0.1	-11
C[C@@H]1CN([C@@H](C)CO)C(=O)c2cc(NC(=O)Nc3ccccc3)ccc2O[C@@H]1CN(C)CC1CC1	27	0.17	1.5	-5
Cc1ccc(S(=O)(=O)Nc2ccc3c(c2)CC(=O)N([C@H](C)CO)C[C@@H](C)[C@H](CN(C)C(=O)Nc2ccc4c(c2)OCO4)O3)cc1	-35	-0.02	0.3	-2
C[C@@H]1CCCCO[C@@H](CN(C)C(=O)Nc2ccc3c(c2)OCO3)[C@@H](C)CN([C@H](C)CO)C(=O)c2cc(NS(=O)(=O)c3ccc(Cl)cc3)ccc2O1	32	0.051	-0.3	-17
CCn1c(SCC(=O)Nc2cc(Cl)cc(Cl)c2)nnc1-c1ccc(C)cc1	.	.	-7.9	43
Cc1ccc2c(c1)c(C)c(C)n2CC(O)Cn1nc(C)c(Br)c1C (centres undefined)	.	.	-7.4	5
C[C@@H]1CN([C@H](C)CO)C(=O)Cc2cc(NC(=O)c3ccncc3)ccc2O[C@H]1CN(C)Cc1ccc(Cl)c(Cl)c1	6	-0.24	-1.7	-8
C[C@@H]1CN([C@@H](C)CO)C(=O)c2cccc(NC(=O)CCCCCC(=O)Nc3ccccc3N)c2O[C@H]1CN(C)Cc1ccc(Cl)c(Cl)c1	.	-0.024	-3.0	80
C[C@@H]1CN([C@@H](C)CO)C(=O)c2cc(NC(=O)C3CC3)ccc2O[C@@H]1CN(C)C(=O)Nc1ccc(F)cc1	2	-0.0087	.	-6
CC(C)(C)c1ccc(OCC(=O)Nc2ccc(C(=O)Nc3ccccc3C(=O)O)cc2)cc1	.	.	1.8	-8
CNC[C@@H]1Oc2c(NS(=O)(=O)c3cccs3)cccc2C(=O)N([C@H](C)CO)C[C@H]1C	-50	-0.11	5.7	-16
O=C(CCCOc1ccc(Cl)cc1Cl)Nc1c[nH]c(=O)[nH]c1=O	.	.	0.4	3
C[C@@H]1CN([C@H](C)CO)C(=O)c2cc(NC(=O)CCC(F)(F)F)ccc2O[C@H]1CN(C)Cc1ccc(-c2ccccc2)cc1	.	-0.22	-3.0	-8
C[C@H]1CN([C@@H](C)CO)C(=O)Cc2cc(N(C)C)ccc2O[C@@H]1CN(C)C(=O)NC1CCCCC1	-19	0.3	0.0	0
C[C@@H]1CCCCO[C@H](CN(C)C)[C@@H](C)CN([C@H](C)CO)C(=O)c2cc(NC(=O)Nc3ccccc3)ccc2O1	-13	-0.0059	.	-1
C[C@@H]1CN([C@H](C)CO)C(=O)c2cccc(NC(=O)Nc3ccc(C(F)(F)F)cc3)c2O[C@@H]1CN(C)S(=O)(=O)c1cccs1	?	-0.058	.	24
COC(=O)C1=COC(O[C@@H]2O[C@H](CO)[C@@H](O)[C@H](O)[C@H]2O)[C@@H]2[C@@](C)(O)CC[C@]12O (some centres undefined)	12	-0.47	1.8	1
C[C@@H]1CN([C@H](C)CO)C(=O)c2cc(NS(C)(=O)=O)ccc2O[C@H]1CN(C)C	-8	0.25	1.3	37
CCN(C)CC12CC3CC(CC(C3)C1)C2	.	-0.26	1.1	19
C[C@@H]1CN([C@H](C)CO)C(=O)c2cc(NC(=O)C3CCCCC3)ccc2O[C@@H]1CN(C)C(=O)Nc1ccc2c(c1)OCO2	.	-0.053	0.1	2
C[C@@H]1CN([C@@H](C)CO)C(=O)c2cc(NS(=O)(=O)c3ccc(F)cc3)ccc2O[C@@H]1CN(C)Cc1ccc(-c2ccccc2)cc1	.	0.023	-2.5	31
COc1ccc(NC(=O)N(C)C[C@@H]2OCCCC[C@@H](C)Oc3ccc(NS(=O)(=O)c4ccc(C)cc4)cc3C(=O)N([C@H](C)CO)C[C@@H]2C)cc1	10	0.38	-0.2	-12
COc1ccc(NC(=O)N(C)C[C@H]2Oc3ccc(NC(=O)Nc4ccc5c(c4)OCO5)cc3C(=O)N([C@@H](C)CO)C[C@@H]2C)cc1	.	-0.17	-0.4	-9
C[C@H](CO)N1C[C@H](C)[C@H](CN(C)C(=O)Nc2cccc3ccccc23)Oc2c(NC(=O)Nc3ccc(C(F)(F)F)cc3)cccc2C1=O	-8	0.19	.	35

Taken from the results shown, four compounds:
structure	Shh pathway inh	YB-1 expr inh	PD-1 reverse act	MITF inhib
C[C@@H]1CN([C@H](C)CO)C(=O)c2cc(NC(=O)CCC(F)(F)F)ccc2O[C@H]1CN(C)Cc1ccc(-c2ccccc2)cc1	.	-0.22	-3.0	-8
C[C@H]1CN([C@@H](C)CO)C(=O)Cc2cc(N(C)C)ccc2O[C@@H]1CN(C)C(=O)NC1CCCCC1	-19	0.3	0.0	0
C[C@@H]1CCCCO[C@H](CN(C)C)[C@@H](C)CN([C@H](C)CO)C(=O)c2cc(NC(=O)Nc3ccccc3)ccc2O1	-13	-0.0059	.	-1
C[C@@H]1CN([C@H](C)CO)C(=O)c2cccc(NC(=O)Nc3ccc(C(F)(F)F)cc3)c2O[C@@H]1CN(C)S(=O)(=O)c1cccs1	?	-0.058	.	24

Following part.
structure	Shh pathway inh	YB-1 expr inh	PD-1 reverse act	MITF inhib
CCCCC1=NC2(CCCC2)C(=O)N1Cc1ccc(-c2ccccc2-c2nn[nH]n2)cc1	-21	0.058	.	5
COc1ccc(NC(=O)Nc2ccc3c(c2)C(=O)N([C@H](C)CO)C[C@H](C)[C@@H](CN(C)Cc2ccc(-c4ccccc4)cc2)O3)cc1	10	0.088	.	-3
C[C@H](CO)N1C[C@H](C)[C@@H](CN(C)C)Oc2c(NC(=O)Nc3ccc4c(c3)OCO4)cccc2C1=O	19	-0.021	.	-17
COc1ccc(NC(=O)N(C)C[C@H]2Oc3ccc(NC(=O)NC(C)C)cc3CC(=O)N([C@@H](C)CO)C[C@@H]2C)cc1	-27	0.13	.	5
C[C@@H]1CN([C@H](C)CO)C(=O)c2cccc(NS(=O)(=O)c3cccs3)c2O[C@H]1CN(C)S(=O)(=O)c1cn(C)cn1	16	0.083	2.1	-4
COc1ccc(S(=O)(=O)Nc2cccc3c2O[C@@H](CN(C)C(=O)Nc2ccccc2)[C@@H](C)CN([C@@H](C)CO)C3=O)cc1	-28	-0.022	-2.1	3
CC(=O)Nc1ccc(C(=O)CSc2nnc(-c3cccc(Br)c3)o2)cc1	.	.	0.4	5
CCC(=O)OCC1=CCCC2C1(C)CCC(C)C2(C)CCC(C)CC(=O)O (centres undefined)	-21	1.3	.	.
CC1(C)CC[C@]2(C(=O)O)CC[C@]3(C)C(=CCC4[C@@]5(C)CC[C@H](O[C@@H]6O[C@H](C(=O)O)[C@@H](O[C@@H]7OC[C@@H](O)[C@H](O)[C@H]7O)[C@H](O)[C@H]6O)C(C)(C)C5CC[C@]43C)C2C1 (some centres undefined)	105*	0.083	-9.2	13
CNC(=O)c1cnc2cc(Cl)ccc2c1OC	.	-0.34	0.5	20
C[C@H](CO)N1C[C@H](C)[C@H](CN(C)C)Oc2c(NC(=O)C3CCOCC3)cccc2C1=O	?	0.22	0.3	-9
C[C@H](CO)N1C[C@H](C)[C@H](CN(C)S(=O)(=O)c2ccccc2)Oc2ccc(NC(=O)c3ccncc3)cc2C1=O	-5	0.18	-1.3	4
O/N=C(\Cn1cncn1)c1ccc(Cl)cc1Cl	-6	0.16	0.2	-3
C[C@@H]1CCCCO[C@@H](CN(C)Cc2ccc(C(=O)Nc3ccccc3N)cc2)[C@@H](C)CN([C@H](C)CO)C(=O)c2cc(NC(=O)NC3CCCCC3)ccc2O1	.	-0.27	-0.2	-2
C[C@@H]1CN([C@H](C)CO)C(=O)Cc2cc(NC(=O)Cn3cnnn3)ccc2O[C@H]1CN(C)C(=O)Nc1ccc(C(F)(F)F)cc1	-11	-0.47	-1.3	3
CCc1ccc(NC(=O)COc2ccc(NC(C)=O)cc2)cc1	.	.	3.3	-11
C[C@@H]1CCCCO[C@H](CN(C)C(=O)c2ccncc2)[C@@H](C)CN([C@H](C)CO)C(=O)c2cc(NC(=O)CCCCCC(=O)Nc3ccccc3N)ccc2O1	.	-0.15	1.6	-18
CSc1nsc(SC)c1NC(=O)OCCc1ccccn1	.	.	0.1	-7
C=C(C)CC1C(=O)NN=C1C (centres undefined)	.	-0.046	0.0	-29
COc1ccc(CCN2C(=O)C(NC(=O)C(C)(C)C)(C(F)(F)F)C3=C2CC(C)(C)CC3=O)cc1OC (centres undefined)	.	.	1.7	-4
C[C@H]1CN([C@@H](C)CO)C(=O)c2cc(NS(C)(=O)=O)ccc2O[C@H]1CN(C)S(=O)(=O)c1ccccc1	25	0.017	.	3
C[C@@H]1CN([C@@H](C)CO)C(=O)c2cc(NS(=O)(=O)c3ccc(Cl)cc3)ccc2O[C@H]1CN(C)S(C)(=O)=O	6	-0.35	1.5	0
CC(C)NC(=O)Nc1ccc2c(c1)CC(=O)N([C@H](C)CO)C[C@@H](C)[C@@H](CN(C)Cc1ccc3c(c1)OCO3)O2	.	0.034	-0.3	-10
C[C@@H]1CN([C@H](C)CO)C(=O)c2cccc(NC(=O)NC3CCCCC3)c2O[C@@H]1CN(C)C(=O)Nc1ccc2c(c1)OCO2	25	.	-3.7	0
COc1cc2ccc(=O)oc2cc1O	-35	0.15	.	3
C[C@@H]1CN([C@@H](C)CO)C(=O)c2cc(NC(=O)CCC(F)(F)F)ccc2O[C@H]1CN(C)Cc1ccc(C(=O)O)cc1	.	0.52	0.2	-11
NCCSC12CC3CC(CC(C3)C1)C2	.	0.16	-2.1	-28
Cc1nc(SCC(=O)Nc2ccccc2)n[nH]1	.	.	1.2	-4
CSc1cccc(NC(=O)CSc2nnc(-c3ccc(Br)cc3)n2C)c1	.	.	-4.9	15
NC(=O)c1c(NC(=O)CCSc2nc(-c3ccco3)cc(C(F)(F)F)n2)sc2c1CCCC2	.	.	-1.7	2
CN(/N=C/c1ccccc1)C1=NS(=O)(=O)c2ccccc21	.	0.073	0.6	-1
O=C(O)c1ccccc1N1C(=O)c2ccccc2C1=O	-49	0.58	-1.0	-7
Cc1ccc(C)c(OCCNS(=O)(=O)c2cc([N+](=O)[O-])ccc2C)c1	.	.	-0.7	-3
CCCCCCCC(=O)CCc1ccc(O)c(OC)c1	-15	1.4	.	.
N#CCCCN1C(=O)C(O)(CC(=O)c2ccc(Br)s2)c2ccccc21 (centres undefined)	.	.	-0.7	20
CCOc1ccc(OCC)c(S(=O)(=O)NC2CC(C)(C)NC(C)(C)C2)c1	.	.	1.2	1
COc1ccc(S(=O)(=O)Nc2ccc3c(c2)CC(=O)N([C@@H](C)CO)C[C@H](C)[C@H](CN(C)S(=O)(=O)c2ccc(OC)cc2)O3)cc1	17	0.1	1.0	-6

This is a subset; rates above refer to the full screens.
